Screening results (PubChem BioAssay)
PME-1 primary: PME-1 (human) inhibition. actives 0.53% (n = 320,000). inhibition, % at 5.9 µM. recombinant PME-1, FP-Rh probe fluorescence polarization. Q9Y570;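 active = inhibition above the campaign mean of all compounds plus 3 SD, cut at about 26% in these data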;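 also: competitive labeling of PME-1 active site by serine hydrolase directed probe; 0% = PME-1 with DMSO and 100% = wells lacking PME-1 enzyme; inhibitors block probe labeling so polarization falls and inhibition rises; many of its hits are not listed in these tables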
Target sequence (Q9Y570 whole entry, looked up): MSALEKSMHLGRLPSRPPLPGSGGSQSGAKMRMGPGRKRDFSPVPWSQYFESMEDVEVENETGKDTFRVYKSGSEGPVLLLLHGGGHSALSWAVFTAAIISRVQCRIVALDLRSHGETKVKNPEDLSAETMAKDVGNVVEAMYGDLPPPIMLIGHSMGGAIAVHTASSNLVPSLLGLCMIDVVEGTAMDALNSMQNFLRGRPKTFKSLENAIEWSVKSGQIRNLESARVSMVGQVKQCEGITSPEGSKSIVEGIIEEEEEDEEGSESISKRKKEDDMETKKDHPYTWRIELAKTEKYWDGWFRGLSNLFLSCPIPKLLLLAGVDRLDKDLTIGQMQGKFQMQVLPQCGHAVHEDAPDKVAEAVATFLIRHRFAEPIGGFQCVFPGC
PAFAH1B3 inh: blocks human PAF acetylhydrolase 1B catalytic subunit 3 | AID 492972 | inhibition, % at 3.39 µM | recombinant PAFAH1B3, FP-rhodamine probe, fluorescence polarization | actives 0.28% (n = 340,000) | Q15102;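 active = inhibition above the screen-wide average of all tested compounds plus 3 SD, cut at about 25% in these data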;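 also: 0% = enzyme with DMSO only and 100% = wells lacking PAFAH1B3 protein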
PAD4 FP inh: inhibitors of human PAD4; Q9UM07; recombinant PAD4, RCA probe fluorescence polarization; inhibition, % at 6.36 µM; actives 0.41% (n = 330,000); AID 485272;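 active = percent inhibition above a cutoff equal to the mean of all tested compounds plus 3 SD, cut at about 15% in these data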;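 also: 0% = PAD4 with RCA probe and DMSO and 100% = probe without PAD4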
GSTO1 inh: GSTO1 inhibition, counter-screen for RBBP9 inhibitors; recombinant GSTO1, activity-based probe fluorescence polarization; inhibition, % at 5.96 µM; actives 1.1% (n = 300,000); AID 1974;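 active = inhibition above the campaign mean inhibition plus 3 SD, cut at about 35% in these data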;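 also: 0% = GSTO1-1 with DMSO and 100% = wells lacking GSTO1-1 enzyme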
Target sequence (P78417 whole entry, looked up): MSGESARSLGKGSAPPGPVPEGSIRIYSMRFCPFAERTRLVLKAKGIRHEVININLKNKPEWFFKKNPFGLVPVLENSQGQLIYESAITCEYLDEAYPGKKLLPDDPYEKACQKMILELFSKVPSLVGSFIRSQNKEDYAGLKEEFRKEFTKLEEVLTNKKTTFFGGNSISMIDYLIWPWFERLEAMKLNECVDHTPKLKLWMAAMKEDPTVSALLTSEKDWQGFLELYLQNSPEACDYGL
pPAFAH inh: inhibitors of human plasma PAF acetylhydrolase (pPAFAH); actives 1.5% (n = 330,000); recombinant pPAFAH, FP-rhodamine probe fluorescence polarization; AID 463082; inhibition, % at 3.39 µM;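 active = inhibition above the mean inhibition across the screen plus 3 SD, cut at about 25% in these data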;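 also: inhibitors block binding of the rhodamine activity-based probe so polarization drops; 0% = enzyme with DMSO and 100% = wells lacking pPAFAH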
Target sequence (Q13093 whole entry, looked up): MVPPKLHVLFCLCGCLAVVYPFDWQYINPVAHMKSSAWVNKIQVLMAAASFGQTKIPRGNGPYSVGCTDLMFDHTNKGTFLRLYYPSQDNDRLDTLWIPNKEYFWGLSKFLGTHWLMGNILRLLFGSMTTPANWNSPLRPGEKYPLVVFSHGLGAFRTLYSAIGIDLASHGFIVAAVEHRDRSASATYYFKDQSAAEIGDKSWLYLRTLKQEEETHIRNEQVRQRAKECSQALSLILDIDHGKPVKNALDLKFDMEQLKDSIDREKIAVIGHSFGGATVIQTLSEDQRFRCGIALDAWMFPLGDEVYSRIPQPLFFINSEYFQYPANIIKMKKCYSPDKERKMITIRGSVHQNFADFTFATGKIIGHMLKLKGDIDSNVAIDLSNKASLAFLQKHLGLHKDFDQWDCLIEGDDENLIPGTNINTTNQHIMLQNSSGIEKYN
PAFAH2 FP inh: PAFAH2 (human) inhibition | Q99487 | recombinant PAFAH2, FP-rhodamine activity probe, fluorescence polarization | inhibition, % at 3.39 µM | actives 0.99% (n = 340,000) | AID 492956;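 active = inhibition above the mean over all tested compounds plus 3 SD, cut at about 30% in these data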;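 also: inhibitors block probe labeling of enzyme so polarization drops; 0% = enzyme with DMSO and 100% = wells lacking PAFAH2 protein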
Fam108B counter: counter-screen for RBBP9 inhibitors: inhibitors of mouse Fam108B; AID 1947; inhibition, % at 9.51 µM; actives 0.33% (n = 300,000); recombinant Fam108B, FP-Rh probe fluorescence polarization;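 active = inhibition above the screen mean inhibition plus 3 SD, computed separately per campaign, cut at about 18% in these data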;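 also: inhibitors lower polarization as less probe binds the enzyme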
LYPLA1 counter: counter-screen for PME1 inhibitors: inhibitors of human LYPLA1; O75608; recombinant LYPLA1, FP-Rh probe fluorescence polarization; inhibition, % at 5.9 µM; actives 0.16% (n = 320,000);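 active = inhibition above the mean of all tested compounds plus 3 SD, set per campaign, cut at about 14% in these data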;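 also: inhibitors block serine hydrolase probe labeling of LYPLA1 so polarization falls; 0% = enzyme with DMSO and 100% = wells lacking LYPLA1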
Starred values were filed as active, the others as inactive; / = no result given.

SMILES | PME-1 primary | PAFAH1B3 inh | PAD4 FP inh | GSTO1 inh | pPAFAH inh | PAFAH2 FP inh | Fam108B counter | LYPLA1 counter
CCOc1ccc(S(=O)(=O)NC(Cc2c[nH]c3ccccc23)C(=O)O)cc1 (stereo not drawn) | -1 | 3 | -4 | 0 | 1 | -3 | 2 | 2
O=C(O)CC(NS(=O)(=O)c1cccc2nsnc12)c1ccc(F)cc1 (stereo not drawn) | -2 | 1 | -2 | 8 | 3 | -1 | 1 | 1
Cc1cc(NS(=O)(=O)c2ccc(NS(=O)(=O)c3cc(C)c(Cl)cc3Cl)cc2)no1 | 3 | 8 | 0 | -5 | 2 | 0 | 0 | -1
COCCCn1c(C(=O)NCCC2=CCCCC2)cc2c(=O)n3cccc(C)c3nc21 | -1 | 4 | 1 | 2 | 7 | -2 | -2 | 0
CC1(C)C2C/C(=N\O)C(C)(/[N+]([O-])=C/c3cccc([N+](=O)[O-])c3)CC21 (stereo not drawn) | 5 | 9 | 3 | 7 | 3 | 3 | -1 | -3
Cc1ccc(S(=O)(=O)NC(CC(=O)O)c2ccccc2)c(C)c1 (stereo not drawn) | -2 | 9 | 4 | 6 | -5 | 4 | 5 | 1
CC(=O)Nc1ccc(S(=O)(=O)NCCC(=O)OCC(=O)NC(C)c2ccc(Cl)cc2)cc1 (stereo not drawn) | / | 4 | / | / | / | 7 | / | /
Cc1c(C(=O)O)oc2ccc(S(=O)(=O)N(CC(C)C)CC(C)C)cc12 | 1 | 5 | -1 | -11 | 5 | 6 | 0 | -3
CCOC(=O)Cn1c(C)cc(=O)c2ccccc21 | -6 | 4 | 4 | 10 | 0 | 0 | -1 | -1
Cc1ccc(S(=O)(=O)CC(=O)c2ccc(C(C)(C)C)cc2)cc1 | 4 | 2 | -2 | -9 | 4 | 3 | -1 | -1
Cn1c(SCC(=O)Nc2ccccc2F)nnc1-c1cccs1 | 0 | 13 | -1 | 6 | 4 | -6 | 9 | 2
Cn1cc(CNC(=O)Nc2ccc3c(c2)OCO3)cn1 | -2 | 6 | -2 | 7 | 7 | 2 | 1 | 1
CCOC(=O)N1CCN(CC(=O)Nc2sc(CC)cc2C(=O)c2ccc(OC)cc2)CC1 | 2 | 0 | 4 | 10 | 5 | -1 | 1 | -4
O=S(=O)(Nc1nc2ccccc2[nH]1)c1ccc(Cl)cc1 | 11 | 7 | 1 | -4 | -1 | -1 | 1 | -3
O=c1cc(CSc2ccc(Cl)cc2)nc2nc[nH]n12 | -3 | 1 | 8 | 14 | -8 | -7 | 0 | 4
CCn1c(CSCc2ccc(C)cc2)nnc1SCC(=O)NCc1ccccc1 | -1 | -8 | -5 | 4 | 3 | 5 | 5 | -1
Clc1ccc(Sc2ccc(/C=N/n3cnnc3)o2)cc1 | 4 | 11 | 5 | 7 | 0 | -2 | 1 | -2
O=c1cc(CSc2ccc(Cl)cc2)nc(N2CCOCC2)[nH]1 | 0 | 10 | 0 | -5 | -1 | -5 | -6 | -2
CC1CCN(S(=O)(=O)c2ccc3c(c2)c(=O)c(C(=O)N2CCCCC2)cn3C)CC1 | 4 | 7 | 7 | 6 | 1 | 1 | 3 | 3
Cc1ccc(S(=O)(=O)NCCc2c[nH]c3ccccc23)cc1 | 0 | 2 | -4 | 10 | 5 | -4 | 2 | 0
O=C(CCCOc1ccccc1)N1CCCCC1 | -3 | -4 | -6 | -1 | 4 | 0 | 2 | -3
O=C1CC(N2CCN(S(=O)(=O)c3ccc(Cl)cc3)CC2)C(=O)N1CCc1ccccc1 (stereo not drawn) | -1 | 0 | 4 | 3 | -2 | 3 | -1 | -4
CCc1nc(N)nc2c1C(=O)CC(C)(C)C2 | 0 | 1 | 1 | -5 | 2 | 1 | 1 | -1
O=C(O)c1cccc(NC(=O)c2ccc(COc3ccc(Cl)cc3)cc2)c1 | -18 | 0 | -1 | -3 | -40 | -4 | -6 | 1
O=C(COc1ccc(Cl)cc1)Nc1cc(NC(=O)COc2ccc(Cl)cc2)cc(C(=O)O)c1 | -22 | -6 | -4 | -24 | 12 | -19 | -15 | -12
CC1CCN(c2ccc3c(c2)S(=O)(=O)c2cccc(C(=O)NC4CC4)c2C3=O)CC1 | / | -3 | -12 | / | -2 | -14 | / | /
CCCCNC(=O)CSc1nnc(Cc2ccc(Cl)c(Cl)c2)c(=O)[nH]1 | -1 | -7 | -3 | -14 | 6 | 2 | -1 | -1
CCCCCC(=O)Oc1cccc(N2C(=O)C3CCCCC3C2=O)c1 (stereo not drawn) | 1 | -2 | 3 | 2 | -2 | -7 | 9 | -3
CCOc1ccc(C(CC(=O)O)NC(=O)C23CC4CC(CC(C4)C2)C3)cc1OC (stereo not drawn) | -3 | -4 | 0 | -3 | 4 | -4 | 2 | -1
Cc1cnc(NC(=O)CSc2nnc(-c3cccs3)n2C)s1 | 0 | -3 | -4 | 8 | 2 | 2 | -2 | 3
O=C(Cc1ccc(Cl)cc1)NNS(=O)(=O)c1ccc([N+](=O)[O-])cc1 | 0 | 4 | -3 | 0 | 2 | -1 | 1 | 1
O=C(CSCc1ccc(Br)cc1)NCCc1ccccc1 | -3 | 14 | 1 | 8 | 6 | 16 | 1 | 0
CN(CCCNC(=O)C1CCC(=O)N1Cc1ccccc1Cl)c1ccccc1 (stereo not drawn) | 4 | 2 | 1 | 2 | 0 | 5 | 2 | 3
CC1CCN(S(=O)(=O)c2cccc(C(=O)O)c2)CC1 | 3 | 3 | 3 | -3 | 3 | 0 | 3 | 1
Cc1cc(NC(=O)C2CC(c3ccc(F)cc3)=NO2)no1 (stereo not drawn) | 8 | 3 | 0 | 5 | 2 | 1 | -2 | 0
Cc1ccsc1/C=N/n1c(-c2ccncc2)n[nH]c1=S | -1 | 6 | -1 | 2 | -4 | -7 | 0 | 2

Three of the compounds above, with two lines to a compound:
The line under a structure holds: PME-1 primary | PAFAH1B3 inh | PAD4 FP inh | GSTO1 inh | pPAFAH inh | PAFAH2 FP inh | Fam108B counter | LYPLA1 counter
Cc1cc(NC(=O)C2CC(c3ccc(F)cc3)=NO2)no1 (stereo not drawn)
  8 | 3 | 0 | 5 | 2 | 1 | -2 | 0
Cc1ccsc1/C=N/n1c(-c2ccncc2)n[nH]c1=S
  -1 | 6 | -1 | 2 | -4 | -7 | 0 | 2
CN(CCCNC(=O)C1CCC(=O)N1Cc1ccccc1Cl)c1ccccc1 (stereo not drawn)
  4 | 2 | 1 | 2 | 0 | 5 | 2 | 3

Next entries.
SMILES | PME-1 primary | PAFAH1B3 inh | PAD4 FP inh | GSTO1 inh | pPAFAH inh | PAFAH2 FP inh | Fam108B counter | LYPLA1 counter
COc1ccc(C2=NOC(C(=O)NCc3ccc(F)cc3)C2)cc1OC (stereo not drawn) | 4 | -3 | 0 | -3 | 8 | 2 | -2 | 0
O=C(CCn1nnc2ccccc21)Nc1nnc(Cc2ccc(F)cc2)s1 | -3 | -5 | -3 | 2 | -5 | -7 | -2 | -6
CCCCOc1nc2ccccc2nc1C(C#N)S(=O)(=O)c1ccccc1 (stereo not drawn) | 6 | 2 | -1 | -1 | 7 | 15 | 0 | -2
O=C(O)CC(Cc1ccc(Cl)cc1)C(=O)Nc1cc(Cl)ccc1Cl (stereo not drawn) | -1 | 0 | 3 | 6 | -4 | 7 | -2 | -2
CC1CC(C)CN(S(=O)(=O)c2ccc3c(c2)NC(=O)C(C)C(=O)N3)C1 (stereo not drawn) | -4 | 6 | -3 | 4 | -2 | 9 | -4 | 2
O=C1C=CC(c2ccccc2)(c2ccccc2)CC1 | / | 14 | / | / | / | 0 | / | /
CCN(C(=O)c1ccc(Cl)c(S(=O)(=O)Nc2c(C)n(C)n(-c3ccccc3)c2=O)c1)c1ccccc1 | / | 2 | -4 | / | 0 | 5 | / | /
N#Cc1c(NC(=O)CSc2nc(N)cc(=O)[nH]2)sc2c1CCCC2 | 2 | 8 | 3 | -19 | 7 | -8 | 0 | 46*
Clc1ccc(SCCOCCN2CCc3ccccc3C2)cc1 | 1 | 2 | 1 | 5 | 2 | -6 | 1 | -1
CC(C)c1ccccc1NC(=S)NC(C)c1ccccc1 (stereo not drawn) | 1 | 0 | -3 | 3 | 2 | 3 | -1 | -7
CCCCCn1c(=NC(C)=O)c(C#N)cc2c(=O)n3ccccc3nc21 | 3 | 5 | 1 | -3 | -2 | 12 | 6 | -2
Cc1ccc(S(=O)(=O)N2[C@@H](c3ccc(F)cc3)C(C(=O)O)=CC[C@H]2c2ccc3c(c2)OCO3)cc1 | -2 | 3 | 0 | -33 | 1 | 13 | -4 | -1
Cc1cc(SCCOc2ccc(Br)cc2)nc(N)n1 | -6 | 8 | 4 | -2 | -2 | 3 | -3 | -2
Cc1ccc(S(=O)(=O)N2[C@@H](c3ccc(F)cc3)C(C(=O)O)=CC[C@H]2c2cccc(C)c2)cc1 | 5 | 7 | -4 | -3 | 6 | 5 | -3 | -5
O=S(=O)(NCCSc1ccc(Cl)cc1)c1ccc2c(c1)OCCO2 | -3 | 5 | -6 | 16 | 9 | 5 | -7 | -5
COC(=O)c1sc(C(F)(F)F)c(-c2ccccc2)c1S(=O)(=O)N1CCCC1 | -1 | -7 | 1 | -9 | 1 | -8 | -1 | -1
COC1(c2ccccc2)NC(=S)NN=C1c1ccccc1 (stereo not drawn) | -1 | 3 | -3 | -1 | -2 | 7 | 7 | 4
N#C/C(=C/c1cn(CC(=O)O)c2ccccc12)c1ccc(F)cc1 | -4 | 5 | -1 | -2 | 6 | 5 | 1 | -1
O=C(c1ccccc1)C(CN1CCCCC1)c1ccccc1 (stereo not drawn) | / | 6 | / | / | / | 7 | / | /
O=C(CONS(=O)(=O)c1ccc(Cl)cc1)NCCNc1ncc(C(F)(F)F)cc1Cl | 6 | 2 | -1 | 5 | 5 | 2 | -5 | -4
N#CC1=C(N)OC2=C(C(=O)CCC2)[C@]12C(=O)N(CC(N)=O)c1ccccc12 | -1 | 4 | 0 | 1 | 3 | -2 | 4 | -1
Cc1ccccc1S(=O)(=O)N1[C@@H](c2cccc(Cl)c2)C(C(=O)O)=CC[C@H]1c1ccc(Cl)cc1 | -5 | 4 | 6 | -219 | 9 | 2 | 1 | -2
O=C(CSc1ccc(Br)cc1)NCC(c1ccco1)N1CCCCC1 (stereo not drawn) | 1 | -4 | -3 | 2 | -6 | 3 | 2 | -1
Cc1ccc(SCc2cn3cc(Cl)ccc3n2)cc1 | -5 | -1 | 1 | 1 | 5 | 0 | -3 | -1
FC(F)(F)c1nc(SCc2ccc(Cl)cc2Cl)n[nH]1 | -5 | 5 | 4 | 5 | -3 | 7 | -2 | 1
Cc1ccc(S(=O)(=O)NNC(=O)NC23CC4CC(CC(C4)C2)C3)cc1 | 1 | 0 | -3 | 4 | -1 | -10 | 1 | -1
O=S(=O)(c1ccc(Cl)cc1)N1CCCN(c2ccc(C(F)(F)F)cn2)CC1 | 0 | 17 | 4 | -6 | 0 | 3 | 1 | -2
CC1CCN(S(=O)(=O)c2ccc(NC(=O)CCN3C(=O)c4ccccc4C3=O)cc2)CC1 | 8 | 2 | -2 | -1 | 0 | -9 | -1 | -8
O=C(NC1CCCCC1)C(c1cccs1)N(C(=O)c1ccccn1)c1ccccc1 (stereo not drawn) | 3 | 7 | -5 | -4 | 2 | -3 | -3 | 0
CC(C)NC(=O)c1onc(CSc2ccc(Cl)cc2)c1C(=O)O | -2 | 5 | 1 | -16 | 5 | 6 | 4 | 0
O=C(NCCc1ccc(Cl)cc1)c1cccc(N2CCCC2=O)c1 | 0 | 5 | 0 | -7 | 2 | 5 | -4 | 4
COC(=O)c1c(NC(=O)Cc2cccs2)sc2c1CCC(C)C2 (stereo not drawn) | -1 | 4 | 1 | 3 | 5 | 12 | -7 | -2

Some of the compounds tested; count on the stated rates, not on these rows.
